PV pol inh = inhibitors of poliovirus RNA polymerase binding and polymerization | poliovirus polymerase elongation, fluorescence polarization; stronger effect = lower value | P03300 | hit rate 0.66% among 150,000 | % elongation, % (compound at 16.7 µg/mL); in the data active means % elongation below about 90%; further: some results filed as inactive read as strong as hits
Target sequence (P03300 1749-2209 limits assumed): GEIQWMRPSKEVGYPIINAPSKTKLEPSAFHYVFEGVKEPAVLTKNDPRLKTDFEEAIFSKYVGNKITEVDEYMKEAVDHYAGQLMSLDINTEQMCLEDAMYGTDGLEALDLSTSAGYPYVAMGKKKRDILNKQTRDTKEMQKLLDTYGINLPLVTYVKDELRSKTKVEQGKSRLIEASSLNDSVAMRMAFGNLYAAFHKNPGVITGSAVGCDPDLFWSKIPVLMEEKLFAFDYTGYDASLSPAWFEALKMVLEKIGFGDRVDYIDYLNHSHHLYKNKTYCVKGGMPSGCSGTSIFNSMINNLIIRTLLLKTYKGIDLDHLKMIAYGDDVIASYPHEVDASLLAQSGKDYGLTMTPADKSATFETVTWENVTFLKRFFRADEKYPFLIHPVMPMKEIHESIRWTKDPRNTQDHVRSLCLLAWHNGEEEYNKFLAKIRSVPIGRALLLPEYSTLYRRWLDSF
PV pol inh intensity = recorded beside PV pol inh, whose call it bears; % elongation; measured here: total intensity read-out; formula for this scale not given here;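 total fluorescence in place of polarization; lower means less elongation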
Numbers without * were called inactive.

The line under a structure holds: PV pol inh	PV pol inh intensity
- O=C1c2[nH]nc(-c3ccccc3)c2C(c2ccccc2)N1c1cccc(C(F)(F)F)c1 (configuration not stated)
  106	111
- COc1cccc(-c2cc(C(=O)Nc3c(C)nn(Cc4ccccc4Cl)c3C)no2)c1
  100	105
- O=C(COc1ccccc1[N+](=O)[O-])N1CCN(CCc2ccccn2)CC1
  106	106
- CCc1ccc(-c2[nH]c3c(c2-c2c(-n4cccc4)n(C)c(=O)[nH]c2=O)c(=O)[nH]c(=O)n3C)cc1
  110	108
- Cc1ccc(C)c(NC(=O)C2CCN(c3ncnc4c3nc3n4CCCCC3)CC2)c1
  116	114
- Cc1cccc(NC(=O)CSc2nc3ccc(NC(=O)c4ccco4)cc3s2)c1
  107	110
- CCOc1ccc(NC(=O)CC2C(=O)N(c3ccc(Cl)cc3)C(=O)N2Cc2cccs2)cc1 (configuration not stated)
  110	115
- Cc1ccc(-c2nc(CS(=O)(=O)CC(=O)NCc3ccc(Cl)cc3)c(C)o2)cc1
  107	110
- Cc1cccc(CC(=O)N2CC(=O)Nc3ccc(C)cc3C2c2ccc(F)cc2)c1 (configuration not stated)
  109	113
- COc1ccc(CNC(=O)CN2C(=O)COc3ccc(S(=O)(=O)N4CCC(C)CC4)cc32)cc1
  114	115
- CC(Nc1ccc(-c2nc(-c3ccco3)no2)cc1[N+](=O)[O-])c1ccccc1 (configuration not stated)
  114	102
- CCOc1ccc(CCNC(=O)C2CCN(C(=O)N3CC(CC)Oc4ccc(C)cc43)CC2)cc1 (configuration not stated)
  103	105
- CCc1ccc2oc(-c3cc(NC(=O)C(C)C)cc(C)c3O)nc2c1
  106	111
- CCN(CC)c1cc(C)c2cc(NC(=O)/C=C/c3cc(OC)c(OC)c(OC)c3)ccc2n1
  103	105
- CC1CCN(S(=O)(=O)c2cn(CC(=O)Nc3ccc(F)cc3)c(=O)c3ccccc23)CC1
  104	105
- CCc1ccccc1NC(=O)CN(c1ccc(OC)cc1)S(=O)(=O)c1c(C)n[nH]c1C
  104	109
- CCCN1C(=O)C(Cc2nc3ccccc3c(=O)n2CC)c2cc(Br)ccc21 (configuration not stated)
  112	110
- Cc1cccc(CSc2ncc(Cl)c(C(=O)Nc3nc4ccc(F)cc4s3)n2)c1
  103	106
- CC(=O)Nc1ccc(NC(=O)CN2C(=O)CCc3cc(S(=O)(=O)N4CCCCC4)ccc32)cc1
  106	107
- O=C(c1cnc(N2CCOCC2)c2ccccc12)N1CCN(c2ccc(F)cc2)CC1
  108	104

Overlap with the part before: 2 compounds; new compounds follow.
The line under a structure holds: PV pol inh	PV pol inh intensity
- CC(=O)Nc1ccc(NC(=O)CN2C(=O)CCc3cc(S(=O)(=O)N4CCCCC4)ccc32)cc1
  106	107
- O=C(c1cnc(N2CCOCC2)c2ccccc12)N1CCN(c2ccc(F)cc2)CC1
  108	104
- O=C(CCCCn1c(=O)c2ccccc2n(Cc2cccc(F)c2)c1=O)NCc1ccc2c(c1)OCO2
  107	110
- COc1ccc(NC(=O)CCS(=O)(=O)c2nc(-c3ccc4c(c3)OCO4)cc(C(F)(F)F)n2)cc1OC
  106	107
- CCc1nn2c(=O)cc(COC(=O)c3ccc(NC(=O)COc4ccc(C)cc4)cc3)nc2s1
  103	98
- CC1CCN(C(=O)CN2c3ccc(C(C)C)cc3-c3ccccc3S2(=O)=O)CC1
  106	110
- COc1ccc(NCc2cccn2-c2nnc(N3CCCCC3)s2)cc1OC
  99	104
- CSc1ncc(C(=O)N2CCN(c3ccc(Cl)cc3)CC2)c(C)n1
  113	107
- Cc1cccc(NC(=O)Cn2nc(N3CCN(c4ccccc4)CC3)ccc2=O)c1C
  115	112
- COc1cccc(CNC(=O)CSc2nc(=O)[nH]c3c2CCC3)c1
  110	109
- COc1ccc(-c2nc(CN3CCC(C(=O)NCCCN4CCN(c5ccccc5F)CC4)CC3)c(C)o2)cc1OC
  106	105
- COc1ccc(OC)c(NC(=O)Cn2cc(C(=O)c3ccccc3)c3ccccc32)c1
  102	109
- CCn1ccc2cc(S(=O)(=O)N3CCC(C(=O)NCCc4ccc(C)cc4)CC3)ccc21
  107	116
- Cc1cccc(NC(=O)N2CCC(CN3CCc4ccccc4C3)CC2)c1C
  118	118
- CC(C)CCNC(=O)c1ccc2c(c1)NC(=O)C(CS(=O)(=O)Cc1cccc(Br)c1)N2 (configuration not stated)
  123	121
- Cc1ccc(CN2CCSc3ccc(C(=O)NCCc4ccccc4)cc32)cc1
  102	111
- CCOc1ccc(CCNC(=O)c2cn(C)c3ccc(S(=O)(=O)N4CCCCCC4)cc3c2=O)cc1OCC
  103	105
- O=C(NCc1ccccc1)C(=O)NCC(c1cccs1)S(=O)(=O)c1cccs1 (configuration not stated)
  107	113
- O=S(=O)(c1ccccc1)c1nc(-c2ccc(F)cc2)oc1NCc1ccccc1
  107	109
- CCN(CC)C(=O)COc1ccc(-c2nnc(Nc3ccc(OC)c(C(=O)NC)c3)c3ccccc23)cc1
  105	108
- CCOc1ccc(CCNC(=O)CN2C(=O)COc3ccc(S(=O)(=O)N4CCC(C)CC4)cc32)cc1
  99	102
- CCn1cc2nc(SCc3ccccc3Cl)n(Cc3ccc(OC)cc3)c(=O)c2n1
  105	113

A draw from above in order of length of the SMILES, descending:
The line under a structure holds: PV pol inh	PV pol inh intensity
- CCN(CC)C(=O)COc1ccc(-c2nnc(Nc3ccc(OC)c(C(=O)NC)c3)c3ccccc23)cc1
  105	108
- CCOc1ccc(CCNC(=O)CN2C(=O)COc3ccc(S(=O)(=O)N4CCC(C)CC4)cc32)cc1
  99	102
- CC(C)CCNC(=O)c1ccc2c(c1)NC(=O)C(CS(=O)(=O)Cc1cccc(Br)c1)N2 (configuration not stated)
  123	121
- CCn1ccc2cc(S(=O)(=O)N3CCC(C(=O)NCCc4ccc(C)cc4)CC3)ccc21
  107	116
- O=C(NCc1ccccc1)C(=O)NCC(c1cccs1)S(=O)(=O)c1cccs1 (configuration not stated)
  107	113
- Cc1ccc(CN2CCSc3ccc(C(=O)NCCc4ccccc4)cc32)cc1
  102	111

Further compounds:
The line under a structure holds: PV pol inh	PV pol inh intensity
- CCOC(=O)C1CCCN(C(=O)c2nn(-c3ccc(OC)cc3)c(=O)c3c2c2ccccc2n3C)C1 (configuration not stated)
  112	107
- CCN(C(=O)c1cn(-c2cccc(OC)c2)c(=O)c2ccccc12)c1ccccc1C
  108	112
- CCc1ccc(C2CC(=O)Nc3cc4c(cc32)OCO4)cc1 (configuration not stated)
  105	110
- COc1ccc(C)cc1N(C)C(=O)c1sc2nc3n(c(=O)c2c1C)CCCCC3
  101	106
- CC(C)CNc1cc(NC2CCCCC2)c2c3c(onc13)-c1ccccc1C2=O
  104	113
- COc1ccccc1N1CCN(C(=O)c2sc3nc4n(c(=O)c3c2C)CCC4)CC1
  105	101
- O=C(OCc1cc(=O)n2nc(-c3cccs3)sc2n1)c1ccccc1
  104	107
- CC(=O)Nc1ccc(NC(=O)C2CCN(c3cnccn3)CC2)cc1
  108	113
- CN(C(=O)Cn1cc(S(=O)(=O)N2CCN(c3ccccc3F)CC2)c2ccccc2c1=O)c1ccc(Cl)cc1
  117	113
- CCCCOc1ccccc1C(=O)Nc1onc2c1CCCC2
  102	106
- Cc1cccc(C)c1OCC(=O)Nc1ccc(Cl)cc1C(=O)c1ccccc1
  107	112
- COC(=O)c1ccccc1NC(=O)COCc1cc(-c2cccs2)on1
  105	113
- CCOc1ccccc1NC(=O)Nc1cc(C(=O)NCc2ccc(C)cc2)ccc1N1CCCC1
  107	105
- Cc1cc(C)cc(-n2ccnc2SCC(=O)Nc2cccc3ccccc23)c1
  105	104
- O=C(NCCc1ccccc1)c1ccc2c(c1)N(Cc1ccccc1)C(=O)c1ccccc1S2=O (configuration not stated)
  102	101
- COc1ccc(C2=CC(c3ccccc3Cl)n3nc(-c4ccc(Cl)cc4)nc3N2)cc1 (configuration not stated)
  108	112
- CCCC(=O)N1CCc2cc(OC)c(OC)cc2C1COc1ccc2c(C)cc(=O)oc2c1 (configuration not stated)
  107	113
- CCN(c1ccccc1)S(=O)(=O)c1ccc(NC(=O)c2nc(SC(C)C)ncc2Cl)cc1
  102	102
- COC(=O)c1ccc(CSc2nc3c(c(=O)[nH]2)CCC3)cc1
  112	113
- Cc1cc(Cl)ccc1NS(=O)(=O)c1cc2[nH]c(=O)c(=O)[nH]c2cc1C
  103	102
- Cc1ccc(NC(=O)CSc2cn(CC(=O)N3CCCCCC3)c3ccccc23)cc1
  106	110
- CCn1cc(C(=O)NCc2ccc(Cl)cc2)c(=O)c2cc(S(=O)(=O)N3CCc4ccccc4C3)ccc21
  105	108
- O=C(Nc1ccc(F)cc1)Nc1nnc(SCC(=O)N2CCCCC2)s1
  112	105
- COc1ccc(CC(=O)N2CCc3cc(OC)c(OC)cc3C2COc2ccc3c(C)cc(=O)oc3c2)cc1OC (configuration not stated)
  108	111
- CCOc1ccc(CNC(=O)C2CCCN(S(=O)(=O)N(CC)c3ccc(OCC)cc3)C2)cc1 (configuration not stated)
  103	98
- CC(=O)N1CCCc2cc(S(=O)(=O)N3CCCC(C(=O)Nc4ccc(C)c(F)c4)C3)ccc21 (configuration not stated)
  107	103
- COc1ccc(N2CCN(CCCNC(=O)c3cnn(-c4ccc(C)cc4)c3-n3cccc3)CC2)cc1
  114	111
- Cc1ccc(CNC(=O)C2CCC(CNS(=O)(=O)c3ccc4c(c3)CCCC(=O)N4)CC2)cc1 (configuration not stated)
  107	113
- CCOC(=O)C1CCN(c2nc3c(S(=O)(=O)c4ccccc4)nnn3c3ccsc23)CC1
  108	107
- CC(C)(C)OC(=O)N1CCC(c2c(C(=O)NCc3ccccn3)cnn2-c2ccccc2)CC1
  101	105
- Cc1ccc(C)c(NS(=O)(=O)c2cc3c4c(c2)C(C)C(=O)N4CCC3)c1 (configuration not stated)
  111	103
- Cc1ccc(-n2nc3c(N4CCC(C(=O)NCCc5ccccc5)CC4)nnc(C)c3c2C)cc1
  103	107
- Cc1ccccc1NC(=O)CSc1ncc2c(n1)-c1ccccc1N(C)S2(=O)=O
  102	109
- O=C(CSc1nc2ccccc2nc1Cc1ccccc1)N1CCCc2ccccc21
  108	130
- O=C(NCCc1ccc(Cl)cc1)c1ccc2nc(CCc3ccccc3)oc2c1
  104	110
- CC1CCN(c2oc(-c3ccc(COc4ccc(Cl)cc4)o3)nc2C#N)CC1
  111	100
- CC(=O)C1=C(c2ccc(Cl)c(Cl)c2)N(C(C)=O)n2c(nnc2C2CCCCC2)S1
  107	109
- CCc1ccc(-n2c(CCC(=O)O)ccc2-c2cccs2)cc1
  112	115
- COc1ccccc1Cc1nc2ccccc2nc1SCC(=O)NCCc1ccccc1
  110	109
- CCN(CC)CCCNC(=O)c1c(C)oc2ncn(CC(C)C)c(=O)c12
  103	106

Entries of single compounds, quoted from the list.
O=C(NCCc1ccc(Cl)cc1)c1ccc2nc(CCc3ccccc3)oc2c1 as listed: PV pol inh: 104; PV pol inh intensity: 110
COc1ccccc1Cc1nc2ccccc2nc1SCC(=O)NCCc1ccccc1 as listed: PV pol inh: 110; PV pol inh intensity: 109

Remaining list, next part.
The line under a structure holds: PV pol inh	PV pol inh intensity
- Cc1c2cnn(-c3ccccc3)c(=O)c2c(C)n1C(C)C(=O)NCc1cccc(Br)c1 (configuration not stated)
  107	108
- O=c1c(N2CCc3ccccc3C2)csc2ccc(F)cc12
  112	110
- CCc1ccc(-c2nc3c(c(SCc4ccc(F)cc4)n2)Cc2c(CO)cnc(C)c2O3)cc1
  109	113
- CCc1ccc(NC(=O)Cn2c(=O)n(CCCC(=O)NCCc3ccc(OC)c(OC)c3)c(=O)c3ccccc32)cc1
  103	111
- CNC(=O)CN1C(=O)COc2ccc(S(=O)(=O)N3CCCCCC3)cc21
  108	110
- CCCCCSc1nnc(-c2ccc(Br)cc2)o1
  105	113
- CCOC(=O)N1CCC2(CC1)OC(=O)C(C)=C2C(=O)NCc1cccc(OC)c1
  115	98
- CCOc1ccc(OCc2ccc(C(=O)Nc3cc(OC)c(OC)c(OC)c3)o2)cc1
  108	108
- CCOc1ccc(CCNC(=O)c2cnc3sc(N4CCCCCC4)nn3c2=O)cc1
  107	115
- Cc1ccc(NC(=O)C2CCCN(S(=O)(=O)c3cccc4cccnc34)C2)cc1 (configuration not stated)
  101	107

Reprinted from the listing, three compounds:
The line under a structure holds: PV pol inh	PV pol inh intensity
- CCOc1ccc(OCc2ccc(C(=O)Nc3cc(OC)c(OC)c(OC)c3)o2)cc1
  108	108
- CCOc1ccc(CCNC(=O)c2cnc3sc(N4CCCCCC4)nn3c2=O)cc1
  107	115
- Cc1ccc(NC(=O)C2CCCN(S(=O)(=O)c3cccc4cccnc34)C2)cc1 (configuration not stated)
  101	107

Following part
The line under a structure holds: PV pol inh	PV pol inh intensity
- COc1ccccc1NC(=O)Cn1c(=O)n(Cc2cccs2)c(=O)c2cccnc21
  103	104
- CCc1ccc(NC(=O)Cn2c(=O)n(CCCCC(=O)NCc3ccccc3Cl)c(=O)c3ccccc32)cc1
  107	111
- COc1ccc(-n2c(-c3ccco3)nc3c(cnn3-c3ccccc3Cl)c2=O)cc1
  105	106
- COCCNC(=O)C1CCN(C(=O)c2cc3sccc3n2Cc2ccc(Cl)cc2)CC1
  106	104
- Cc1ccccc1CNC(=O)C(C)n1nc(C)n2c(cc3occc32)c1=O (configuration not stated)
  109	109
- CCOc1ccc(CNCc2c(C(=O)O)n(Cc3ccccc3C)c3cc(OC)ccc23)cc1OC
  99	103
- CCC(Sc1nc2ccncc2[nH]1)C(=O)Nc1ccc(F)cc1 (configuration not stated)
  105	110
- COc1ccc2c(c1)CC(C(=O)Nc1cccc(C)c1C)CO2 (configuration not stated)
  102	107
- CCN(C(=O)Cn1cnc2c1c(=O)n(C)c(=O)n2C)c1ccccc1C
  105	108
- Cc1ccccc1OCC(=O)Nc1ccc2nc(SCC(=O)N(C)c3ccccc3)sc2c1
  106	109
- Cc1ccc(NC(=O)Cn2c(-c3nonc3N)nc3ccccc32)cc1Cl
  113	115
- COc1ccc(-c2nc(SCC(=O)N3CCC(C)CC3)n[nH]2)cc1
  114	100
- COc1ccc(NC(=O)Cn2ncc3c([nH]c4ccccc43)c2=O)cc1Cl
  110	104

High-throughput results deposited in PubChem by ICCB-Longwood Screening Facility, Harvard Medical School.

The list is partial; count on the stated rates, not on these rows.
